RecA intein inh = blocks M. tuberculosis RecA intein splicing; cell-free RecA intein splicing, fluorescence; 290,000 compounds, 0.75% hits; inhibition, %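 (about 9 µM by stock and volumes)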; in the data active = inhibition above about 30%; inconclusive = no clear call, values can overlap the other calls;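 note: 0% = vehicle wells and 100% = reference inhibitor control wells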
Target sequence (P9WHJ3 whole entry, looked up): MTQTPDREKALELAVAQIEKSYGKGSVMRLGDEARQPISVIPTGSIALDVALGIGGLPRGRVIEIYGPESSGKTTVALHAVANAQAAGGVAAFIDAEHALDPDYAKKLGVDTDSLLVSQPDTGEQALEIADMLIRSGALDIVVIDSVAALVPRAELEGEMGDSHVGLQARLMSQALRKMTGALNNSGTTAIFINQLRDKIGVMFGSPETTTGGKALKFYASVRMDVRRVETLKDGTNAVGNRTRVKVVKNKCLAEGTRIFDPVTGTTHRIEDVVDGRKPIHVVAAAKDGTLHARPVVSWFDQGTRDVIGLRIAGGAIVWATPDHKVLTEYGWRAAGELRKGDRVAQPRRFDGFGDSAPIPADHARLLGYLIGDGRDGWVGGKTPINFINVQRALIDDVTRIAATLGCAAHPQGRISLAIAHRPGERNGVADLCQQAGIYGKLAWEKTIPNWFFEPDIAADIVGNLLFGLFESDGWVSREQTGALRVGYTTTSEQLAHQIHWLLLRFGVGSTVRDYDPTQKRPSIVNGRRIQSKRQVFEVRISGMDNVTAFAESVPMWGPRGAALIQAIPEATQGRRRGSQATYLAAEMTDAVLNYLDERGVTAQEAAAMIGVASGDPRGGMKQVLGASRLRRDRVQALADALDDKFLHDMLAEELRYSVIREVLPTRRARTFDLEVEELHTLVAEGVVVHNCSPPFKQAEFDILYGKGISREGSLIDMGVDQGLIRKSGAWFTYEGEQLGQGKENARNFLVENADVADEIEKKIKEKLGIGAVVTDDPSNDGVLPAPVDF
Mtb betalactam = beta-lactam sensitization of Mtb H37Rv; M. tuberculosis H37Rv growth with meropenem, percent inhibition; hits of this screen are not shown here; inhibition, % at 25 µM; 330,000 compounds, 0.27% hits;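 active = about 74% or more and at least 40 points above the plate without the antibiotic, then above 30% in a dose series; inconclusive = first-round hits that could not be retested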;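 note: growth measured after seven days incubation then overnight dye step; 0% = bacteria only wells and 100% = bacteria with antibiotic; twin plates without the antibiotic show which effects depend on it; some results filed as inactive read as strong as hits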
Arbovirus inh = blocks arbovirus infection; inhibition, % at 10 µM; 200,000 compounds, 0.37% hits; AID 1251; arbovirus infection cell-based antiviral screen;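 active = inhibition from about 30%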;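 note: bluetongue infection of BSR cells; cell survival read as ATP light after 72 h; 0% = infected wells without compound and 100% = uninfected wells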
Mtb H37Rv = M. tuberculosis H37Rv growth inhibitors, H37Rv strain (AID 1626); M. tuberculosis H37Rv growth inhibition; higher % means a stronger effect; inhibition, % at 10 µM; hits with a dose series show IC50 in µM; 220,000 compounds, 0.95% hits;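 active = confirmed in a dose series; inconclusive = inhibition above 80% but not taken into the dose series; inactive = below 80% or under 30% at every dose of the series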;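 note: bacteria incubated seven days before Alamar blue readout; 0% = bacteria only wells and 100% = bacteria with antibiotic wells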
YopH inh = inhibitors of Yersinia enterocolitica YopH tyrosine phosphatase. fluorescence Ex485/Em525. inhibition, %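 (about 10 µM by stock and volumes)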. 140,000 compounds, 0.16% hits. AID 898;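 active = inhibition of 50% or more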;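 note: controls were vehicle for no effect and minimum signal wells for full effect; inactives centre near -20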
An asterisk follows results filed as active; ? = inconclusive; nt = not tested or not shown.

SMILES | RecA intein inh | Mtb betalactam | Arbovirus inh | Mtb H37Rv | YopH inh
CCC(C)(C)NC(=O)C(c1ccc(F)cc1)N(CCOC)C(=O)CCC(=O)Nc1nccs1 (stereo not drawn) | -0.2 | -9 | nt | nt | nt
Cc1onc(-c2ccccc2Cl)c1C(=O)N1CCOC12CCN(c1cccc(F)n1)CC2 | 2.9 | 1 | 7 | 5% | nt
CCN(CC)S(=O)(=O)c1ccc(N2CCOCC2)c(NC(=O)CC2OC(=O)c3ccccc32)c1 (stereo not drawn) | 1.1 | -10 | nt | nt | nt
O=C(O)c1ccc(S(=O)(=O)N2CCCCCC2)cc1 | -2.6 | 6 | 6 | -11% | -8
O=[N+]([O-])c1cccc(/C=N/Nc2cc(N3CCOCC3)ncn2)c1 | 1.1 | 5 | nt | nt | nt
COC(=O)CNC(=O)c1cc(OC)cc(OC)c1 | 1.8 | 5 | -1 | -5% | nt
CCc1cc(C(c2ccncc2)N2CCN(C)CC2)c(NC(=O)c2ccccc2)s1 (stereo not drawn) | 2.3 | 4 | 18 | -5% | -26
CC(=O)N1CCc2cc(S(=O)(=O)Nc3ccc(C)cc3C)ccc21 | 0.9 | 3 | nt | nt | nt
CCN(CC)S(=O)(=O)c1ccc(F)c(C(=O)NCCC(C)C)c1 | -2.0 | -9 | -4 | -2% | -15
COC(=O)c1ccc(CSc2n[nH]c(-c3ccccc3)n2)o1 | -1.3 | 0 | 3 | 0% | nt
CCCc1cc(N2CCCC(C(=O)NCc3ccc4c(c3)OCO4)C2)n2ncnc2n1 (stereo not drawn) | -0.2 | -7 | 5 | 1% | -31
CCOCC(=O)Nc1nc2ccc(S(C)(=O)=O)cc2s1 | 0.7 | -2 | 2 | 1% | 15
COc1ccccc1CNC(=O)CSc1nc(N)c(C#N)c(-c2cccs2)c1C#N | -1.0 | 8 | -12 | -1% | -14
CCCCc1c(C)nc2ccc(Br)cc2c1SC(N)N | nt | nt | 1 | -9% | nt
Fc1ccc(CN2CCN(c3ccc(Cl)cc3)CC2)cc1 | 1.9 | 6 | -5 | 2% | nt
COc1ccc(NS(=O)(=O)c2cnc[nH]2)cc1 | 1.8 | -4 | 4 | 5% | nt
COCCN1CC(CNC(=O)c2cc(COc3ccc(C)c(C)c3)on2)CC1=O (stereo not drawn) | 1.5 | -1 | nt | nt | nt
COc1cc(-c2nc3sc(C)c(C)c3c(=O)o2)cc(OC)c1OC | -8.7 | 10 | nt | nt | nt
Cc1ccc(S(=O)(=O)N2CCN(C(=O)c3cc(-c4cccs4)nn3-c3ccccc3)CC2)cc1 | 0.3 | 1 | nt | nt | nt
O=C(CCNc1ccc(F)cc1)c1cccc([N+](=O)[O-])c1 | 0.6 | 76 | -44 | -6% | -38
O=C(COC(=O)c1cccnc1Cl)Nc1ccc2c(c1)OCCO2 | -0.6 | 4 | 2 | -5% | nt
COc1ccc(NC(=O)c2ccc3c(c2)C(=O)N(CC2CCCO2)C3=O)cc1 (stereo not drawn) | -0.7 | -7 | nt | nt | nt
Cc1ccc(S(=O)(=O)Nc2nc(C)c(NC(=O)Nc3ccc(Cl)cc3Cl)s2)cc1 | -0.8 | -2 | 13 | 4% | 0
COc1ccc(-c2c(C#Cc3ccsc3)c3ccccc3n2C)cc1 | -0.3 | 94 | nt | nt | nt
CN(C)C(=O)CCN1CCOCC1 | 4.4 | -12 | 3 | 3% | -17

The results go on:
SMILES | RecA intein inh | Mtb betalactam | Arbovirus inh | Mtb H37Rv | YopH inh
O=C(CSc1ncnc2c1nnn2-c1ccc(F)cc1)NCC1CCCO1 (stereo not drawn) | 38* | 92 | 3 | 3% | -10
COc1ccccc1NC(=O)CSc1ccc2nnc(-c3ccccn3)n2n1 | -0.4 | -2 | nt | 4% | nt
CCCS(=O)(=O)C(=C(Nc1ccccc1)Nc1ccccc1)S(=O)(=O)CCC | 0.2 | -1 | -5 | -3% | -8
COc1ccc(OC)c(NC(=O)CSc2nnc(CNC(=O)c3ccco3)o2)c1 | -2.2 | 36 | 10 | 4% | -9
CN(C)S(=O)(=O)c1cccc(C(=O)c2nccn2C)c1 | -0.3 | -9 | 0 | 2% | nt
COc1ccc(C2=NCCn3nc4cc([N+](=O)[O-])ccc4c32)cc1 | 3.1 | 1 | nt | nt | nt
CC1CC(C)CN(C(=O)COC(=O)CCCN2C(=O)c3cccc4cccc(c34)C2=O)C1 (stereo not drawn) | -0.3 | -1 | nt | nt | nt
CCOc1ccc(C(=O)NC(=S)Nc2ccccc2N2CCOCC2)cc1Br | 2.4 | -4 | 27 | 12% | -8
COc1cc2c(cc1OC)CN(CC(=O)Nc1ccc(C)c(C)c1)CC2 | -1.8 | ? | nt | nt | nt
N=c1n(CC(=O)c2cccc([N+](=O)[O-])c2)c2ccccc2n1Cc1ccccc1 | -3.3 | 1 | -18 | 5% | nt
COc1ccc(C(=O)OCC(=O)NC2CCCC2)c(OC)c1 | -1.6 | 26 | nt | nt | nt
Cc1cccc(N2CCN(C(=O)Cc3ccc(-n4c(=O)[nH]c5ccsc5c4=O)cc3)CC2C)c1 (stereo not drawn) | -0.9 | -4 | 2 | 1% | -35
COc1ccccc1N1CCN(/N=C/c2cc(Br)ccc2F)CC1 | 9.0 | 2 | nt | nt | nt
CCC(C)(C)NC(=O)Cc1ccc(Cl)cc1 | -0.1 | -3 | 7 | 7% | nt
C=CCn1c(SCC(=O)NCc2ccccc2)nnc1-c1cc(Br)ccc1O | 6.5 | 1 | 9 | 2% | -35
Cc1cc(C)c(C)c(S(=O)(=O)N2CCC(C(=O)Nc3ccccc3N3CCOCC3)CC2)c1C | 6.1 | 1 | -2 | 11% | -25
O=C(Nc1ncc(Cc2cccc(Cl)c2)s1)C1=NCCN1 | -2.8 | 98 | -32 | 7µM* | -15
CCNS(=O)(=O)c1ccc(CCC(=O)Nc2cc(Cl)ccc2Oc2ccccc2)cc1 | 15 | 7 | -38 | 4% | -25
O=C(Nc1ccc(Cl)cc1)Nc1cnccn1 | nt | -1 | -3 | -3% | nt
CN1C(=O)C(=Cc2cn(CC(=O)N3CCCCC3)c3ccccc23)C(=O)N(C)C1=O | -1.3 | 6 | nt | nt | nt
CCOC(=O)Cn1c(S(=O)(=O)Cc2ccccc2Cl)nc(-c2ccccc2)c1-c1ccccc1 | 4.5 | 1 | -9 | 18% | -49
O=C(NCC1CCCN(C(=O)c2cscn2)C1)c1ccccc1Cl (stereo not drawn) | -0.2 | -8 | 6 | 1% | nt
CC(C)(C)C(=O)[C@@H]1[C@@H]2C(=O)N(C3CCCCC3)C(=O)[C@@H]2[C@H]2c3ccccc3C=CN12 | nt | 3 | nt | nt | -7
O=C(CSc1nnc(NC(=O)c2ccco2)s1)NC1CCCCC1 | 1.8 | ? | 3 | -6% | -33
CCCCCCCn1c(=O)c(C(=O)Nc2cnccn2)c(O)c2ccccc21 | nt | 100 | nt | <0.2µM* | nt

Next records
SMILES | RecA intein inh | Mtb betalactam | Arbovirus inh | Mtb H37Rv | YopH inh
COc1ccc(CNC(=O)CN(C(=O)c2cc3sccc3n2C)C2CCCC2)cc1 | -0.4 | -7 | -1 | 5% | -33
Cc1nnc(SCC(=O)Nc2nnc(-c3ccccc3)o2)s1 | -2.2 | 1 | nt | nt | nt
CCOc1ccc(-c2nc(C#N)c(N3CCN(CC)CC3)o2)cc1 | 2.0 | -3 | 9 | 2% | -4
CCCC1CCC(=NNC(=O)CNc2ccc(OC)cc2)CC1 (stereo not drawn) | -5.2 | 37 | 2 | 77% | -11
CCCc1cc(C(=O)N2CCN(c3ccccc3C)CC2)cs1 | -11 | 67 | -6 | 12% | -19
O=C1NC[C@@H](Cc2cccc3ccccc23)N(CC2CCCCC2)C1=O | 3.8 | 14 | nt | -8% | nt
Clc1ncnc2scc(C3COc4ccccc4O3)c12 (stereo not drawn) | 67* | -8 | 2 | -3% | -35
O=C(NC1CC(=O)N(c2ccc(F)cc2)C1)N1CCN(C(=O)c2ccco2)CC1 (stereo not drawn) | -2.1 | -17 | nt | nt | nt
CCOC(=O)Cc1csc(SCC(=O)c2c(N)n(CC(C)C)c(=O)n(C)c2=O)n1 | -2.2 | -2 | 0 | nt | -46
CC(=O)Oc1ccc(C(=O)Nc2ccccc2C(=O)N2CCCC2)cc1 | -0.9 | 8 | nt | nt | nt
CC(=O)Nc1ccc(NC(=O)CSc2nnnn2C2CCCCC2)cc1 | -2.5 | -4 | nt | nt | nt
O=C(NC(=S)Nc1cccc(NC(=O)c2ccc(Cl)cc2Cl)c1)c1cccs1 | -0.2 | -7 | 17 | 47% | -14
Cc1cc(C)c(-c2cc(C(F)(F)F)no2)c(=O)[nH]1 | -1.7 | -9 | -1 | -2% | -148
O=C(CN1C(=O)c2ccccc2S1(=O)=O)N1CCc2ccccc2C1 | 2.9 | 0 | -1 | -5% | 1
Cc1cccc(C(=O)Nc2ccc(Oc3cnccn3)cc2)c1 | 1.1 | 0 | nt | nt | nt
CC(C)(C)c1ccc(C(=O)NCC(=O)OCC(=O)Nc2nc(-c3ccc(F)cc3)cs2)cc1 | 1.5 | 92 | 1 | 65% | nt
Cc1ccc2nc(NC(=O)c3ccc4c(c3)OCO4)sc2c1 | 1.9 | -8 | -7 | -8% | -10
CC(=O)c1c(C)[nH]c(C(=O)OCCOc2ccccc2)c1C | 0.6 | -5 | -4 | 7% | nt
CSc1ccccc1NS(=O)(=O)c1cccc2nonc12 | 2.2 | -7 | nt | nt | nt
COc1ccc(Nc2nc(Nc3ccc(OC)cc3)nc(-n3[nH]c(=O)c(C)c3C)n2)cc1 | 1.5 | 55 | -11 | 7% | -46
COc1ccc(F)cc1S(=O)(=O)N1CCC(C(N)=O)CC1 | 1.8 | -2 | 3 | 0% | -2
O=C(Nc1ccc(S(=O)(=O)Nc2ncccn2)cc1)c1ccco1 | 5.1 | 25 | -1 | -8% | -9
Cc1ccc(NC(=S)Nc2ccc(OC(F)F)c(Cl)c2)cc1Cl | 9.1 | 78 | -9 | ? | 2
O=C(Nc1ccccc1)OCC1CCCO1 (stereo not drawn) | -1.7 | -4 | nt | nt | nt
NC(=O)[C@@H]1CCCN1C(=O)c1cc(COc2ccc(F)cc2F)on1 | -1.9 | 2 | nt | nt | nt

Laid out differently: results already given.
Each structure is followed by: RecA intein inh	Mtb betalactam	Arbovirus inh	Mtb H37Rv	YopH inh
> CC(=O)Nc1ccc(NC(=O)CSc2nnnn2C2CCCCC2)cc1
 : -2.5	-4	nt	nt	nt
> O=C(NC(=S)Nc1cccc(NC(=O)c2ccc(Cl)cc2Cl)c1)c1cccs1
 : -0.2	-7	17	47%	-14
> Cc1cc(C)c(-c2cc(C(F)(F)F)no2)c(=O)[nH]1
 : -1.7	-9	-1	-2%	-148
> O=C(CN1C(=O)c2ccccc2S1(=O)=O)N1CCc2ccccc2C1
 : 2.9	0	-1	-5%	1

(next part)
SMILES | RecA intein inh | Mtb betalactam | Arbovirus inh | Mtb H37Rv | YopH inh
CCOC(=O)Cn1c(=N)n(CCOc2ccc(OC)cc2)c2ccccc21 | -0.7 | -14 | -5 | -10% | -10
Cc1cc(C)nc(-n2nc(C)c3c(=O)[nH]c(C(F)(F)F)nc32)n1 | -0.6 | -13 | 0 | -5% | -13
CCOC(=O)C(NC(=O)N1CCCCC1)(c1ccccc1)C(F)(F)F (stereo not drawn) | -1.1 | 4 | -2 | -1% | -59
O=C1c2cccc(OCC(=O)N3N=C(c4cccs4)CC3c3ccc(F)cc3)c2CCN1Cc1ccccc1 (stereo not drawn) | 8.3 | 5 | -17 | 3% | -16
CCNC(=O)CN(c1ccc(Oc2ccccc2)cc1)S(=O)(=O)c1ccccc1 | -1.2 | 0 | nt | nt | nt
COc1ccc(-c2nnn(CC(=O)N(C3CCCCC3)C(C)C(=O)NC3CCCC3)n2)cc1OC (stereo not drawn) | -0.4 | 14 | -12 | 1% | -42
CC(=O)Oc1ccc(C(=O)Nc2cccc(NC(=O)c3ccco3)c2)cc1 | 5.1 | -6 | nt | nt | nt
COCc1cc(CNC(=O)C2CCC(=O)N(Cc3ccccc3OC)C2)[nH]n1 (stereo not drawn) | -2.0 | -8 | nt | nt | nt
Cc1ccc(S(=O)(=O)Nc2nc3n(n2)C(c2ccc(Cl)cc2)CC(=O)N3)cc1 (stereo not drawn) | -1.5 | -22 | 12 | -12% | -32
CCn1c(CSc2nc3ccccc3n2C)nc2ccccc21 | 0.8 | -10 | -2 | 15% | -29
CCCc1[nH]nc2c1C1(C(=O)N(Cc3ccccc3)c3ccccc31)C(C(=O)OC)=C(N)O2 (stereo not drawn) | 16 | 16 | 12 | -3% | 0

Of the compounds above, 4 have bromine.
SMILES | RecA intein inh | Mtb betalactam | Arbovirus inh | Mtb H37Rv | YopH inh
CCCCc1c(C)nc2ccc(Br)cc2c1SC(N)N | nt | nt | 1 | -9% | nt
CCOc1ccc(C(=O)NC(=S)Nc2ccccc2N2CCOCC2)cc1Br | 2.4 | -4 | 27 | 12% | -8
COc1ccccc1N1CCN(/N=C/c2cc(Br)ccc2F)CC1 | 9.0 | 2 | nt | nt | nt
C=CCn1c(SCC(=O)NCc2ccccc2)nnc1-c1cc(Br)ccc1O | 6.5 | 1 | 9 | 2% | -35

Screening data as filed in PubChem.

Some of the compounds tested; the hit share may differ from the screen's.
